Rango complex inh: qHTS Assay for Inhibitors of Rango (Ran-regulated importin-beta cargo) - Importin beta complex formation; Rango CFP/YFP FRET sensor + importin beta, 45 min; Importin subunit beta-1 (Homo sapiens), Q14974; Potency, µM (series often up to 92.2 µM), without a hit: top-dose inhibition of complex formation; AID 540263, 2011; actives 0.031% (n = 340,000); active = rising FRET ratio curve, often small or poorly fitted; inconclusive = mostly compound fluorescence or quenching in the first reads; inactive = flat curves in all reads;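 further: potency means the concentration at half of the fitted maximal effect; 0% = DMSO wells and 100% = buffer wells lacking importin beta; nearly all actives have a fitted effect of over 15% in size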
Target sequence (Q14974 whole entry, looked up): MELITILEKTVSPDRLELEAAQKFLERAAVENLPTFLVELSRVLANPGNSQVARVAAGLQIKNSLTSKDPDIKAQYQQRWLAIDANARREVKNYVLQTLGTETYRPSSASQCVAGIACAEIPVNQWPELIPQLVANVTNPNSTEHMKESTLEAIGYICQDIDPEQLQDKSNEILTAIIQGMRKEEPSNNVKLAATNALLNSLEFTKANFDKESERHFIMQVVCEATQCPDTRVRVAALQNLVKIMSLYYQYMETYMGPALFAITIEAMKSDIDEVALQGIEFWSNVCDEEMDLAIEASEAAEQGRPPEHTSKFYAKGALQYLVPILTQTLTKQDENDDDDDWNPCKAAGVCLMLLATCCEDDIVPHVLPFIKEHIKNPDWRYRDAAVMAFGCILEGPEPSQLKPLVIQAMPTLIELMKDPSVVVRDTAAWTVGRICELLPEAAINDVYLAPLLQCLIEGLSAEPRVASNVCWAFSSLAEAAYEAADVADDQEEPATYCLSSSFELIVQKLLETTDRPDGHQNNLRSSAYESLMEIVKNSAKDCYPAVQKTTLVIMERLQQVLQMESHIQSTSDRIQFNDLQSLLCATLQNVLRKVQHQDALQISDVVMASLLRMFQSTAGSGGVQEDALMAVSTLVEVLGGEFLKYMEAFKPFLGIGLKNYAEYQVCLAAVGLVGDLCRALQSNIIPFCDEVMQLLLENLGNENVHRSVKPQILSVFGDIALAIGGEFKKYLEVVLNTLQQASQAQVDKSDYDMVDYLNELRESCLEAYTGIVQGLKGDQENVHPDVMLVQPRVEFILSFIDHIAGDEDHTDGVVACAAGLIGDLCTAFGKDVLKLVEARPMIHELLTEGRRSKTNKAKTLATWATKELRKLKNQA
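Inhibition scored from the CFP 486 nm/YFP 530 nm FRET ratio 45 min after adding 0.125 microM importin beta to 50 nM Rango biosensor preincubated 5 min with compound (room temperature, PBS with DTT, Tween-20, BSA). No-importin wells as positive control.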
Rango release inh: qHTS Assay for Inhibitors of RanGTP induced Rango (Ran-regulated importin-beta cargo) - Importin beta complex dissociation | Snurportin-1 (Homo sapiens) + GTP-binding nuclear protein Ran (Homo sapiens) + Importin … | AID 540253, 2011 | Potency, µM (top dose mostly 46.1 µM), for the others: at the top dose activity change, negative = inhibition | actives 0.071% (n = 340,000) | Biochemical FRET Rango-importin beta, RanGTP-induced dissociation; active means falling FRET ratio curve, often poorly fitted, with flat reads before Ran was added; inconclusive means other falling curves, or compound fluorescence or quenching; inactive means flat or rising ratio curve;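 further: potency means the concentration at half of the fitted maximal effect; % of control where 0% means no effect; nearly all actives have a fitted effect of over 45% in size; -100% = wells without RanGTP and RCC1; the record marks most hits as doubtful in a second field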
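Compounds preincubate 5 min with complex of recombinant Rango and importin beta in PBS with 1 mM DTT. Ran (0.6 uM) loaded with 2 mM GTP plus 0.2 uM RCC1 starts dissociation; FRET is recorded 45 min later.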
GLA inh pH 4.5: qHTS Assay for Inhibitors of Human alpha-Galactosidase at pH 4.5; AID 1467, 2008; activity change, negative = inhibition, % at 105 µM; Alpha-galactosidase A (Homo sapiens), P06280; 230,000 tested, under 10 active; purified enzyme, 4-MU-alpha-Gal fluorescence, pH 4.5; inconclusive = small, poorly fitted or top-dose-only inhibition, or a rising curve; inactive = flat fitted curve, though single readings scatter; no compound was filed as active;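 further: 0% = full activity with enzyme and -100% = basal without enzyme; dose as in the result columns while the protocol names 77 µM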
miR-21 reporter: qHTS Assay for Modulators of miRNAs and/orActivators of miR-21 | 340,000 tested, under 10 active | Potency, µM (highest dose often 38.3 µM), without a hit: at the top dose reporter change, positive = more light | AID 2288, 2010 | HeLa miR-21 FLuc reporter, luciferase, 48 h; active = well fitted rising curve with a large enough effect; inconclusive = small, poorly fitted or top-dose-only effect; inactive = no such curve, though single readings can be large or run the other way;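 further: % of control where 0% means no effect; miR-21 action dims this reporter so a rising signal means less miR-21 action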
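HeLa cells stably expressing CMV-driven firefly luciferase with a downstream miR-21 binding sequence, endogenously expressing miR-21, were treated with titrations (up to about 40uM final) for 48 hours at 37 degree Celsius. Luciferase luminescence was read after lysis.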
Numbers without * were called inactive; ? = inconclusive; · = no result given; & = joins results of further samples. A portion of the library; rates above refer to the full screens.

Rango release inh | Rango complex inh | miR-21 reporter | GLA inh pH 4.5 | SMILES
1% | 3.1% | -6% | -3 | COc1ccc(C2OC(=O)C(C)(C)C(=O)C2(C)C)cc1OC (stereo not given)
-14% | -0.7% | -2% | -4 | CCn1c(=NC(=O)C2COc3ccccc3O2)sc2c(OC)ccc(OC)c21 (stereo not given)
0%&0% | 1.2%&-1.5% | -6% | -3 | CCCc1ccc(OCC(O)CN2CCN(c3ccccc3)CC2)cc1 (stereo not given)
1% | -2.1% | 1% | 8 | CCCc1nnc(N2C(=O)c3cccc4cccc(c34)C2=O)s1
-1% | -0.6% | · | · | Cc1ccc(S(=O)(=O)N2CCC3CC2c2cc(Cl)ccc23)cc1 (stereo not given)
0% | -0.2% | · | · | Cc1cc(NS(=O)(=O)c2ccc(NC(=O)c3ccc(F)cc3)cc2)nc(C)n1
-9% | 2.0% | -16% | 3 | Cc1csc(SCC(=O)Nc2sc3c(c2C#N)CCC3)n1
-3% | 4.5% | -8% | 7 | COc1cc(NC(=O)C2CCC(CNc3c(N4CCCCC4)c(=O)c3=O)CC2)cc(OC)c1 (stereo not given)
-7% | -1.7% | -1% | 2 | O=C(COC(=O)Cc1ccc(F)cc1)NCc1ccco1
-21% | ? | · | · | O=C(CC1C(=O)Nc2ccccc2N1CC(=O)N1CCCC1)Nc1ccc(Br)cc1 (stereo not given)
-3% | -3.4% | -6% | 5 | CC(C(=O)NC1C(=O)N2C(C(=O)O)=C(CSc3nnnn3C)CSC12)n1cc(Br)cn1 (stereo not given)
15% | ? | -1% | -3 | CCCCn1c(-c2c(Cl)c(C)nn2C)n[nH]c1=S
? | 1.9% | · | · | COc1ccc(CN(C)C(=O)c2ccc3c(=O)n4c(nc3c2)CCC4)c(OC)c1
· | · | -60% | -1 | O=C(/C=C/c1ccc(F)cc1)Nc1nc2ccccc2[nH]1
-24% | ? | 0% | · | Cc1cc(-n2nc3ccccc3n2)c(O)c([N+](=O)[O-])c1
-14% | -2.7% | 7% | · | CC(c1nnc(SCC(=O)Nc2cc([N+](=O)[O-])ccc2F)n1Cc1ccccc1)N(C)C (stereo not given)
-3% | -1.1% | 4% | 3 | CCC(C)(C(=O)NC1CCCC1)N(C)C(=O)Cc1c[nH]c2ccccc12 (stereo not given)
2% | 0.9% | -2% | 6 | COC(=O)CCCCC1SCC(NC(=O)OC)C1NC(=O)OC (stereo not given)
-10% | 0.7% | -5% | 10 | COc1ccccc1CNC(=O)C1CCN(S(C)(=O)=O)CC1
-6% | 1.7% | -4% | 4 | NC(N)=NNC(=O)c1ccccc1Cl
2% | -0.5% | · | · | O=C(c1cc2ccccc2o1)N(Cc1ccco1)Cc1cccs1
-4% | 1.4% | -15% | 4 | O=C(NCc1ccncc1)NC1CCCCC1
1% | -0.8% | · | · | O=C(c1cccc(O)c1)N1CCN(C(=O)C2CC2)CC1
0% | 3.6% | 8% | -7 | CCc1ccc(-c2nc(CN3CCCC(C(=O)NCCc4ccc(OC)c(OC)c4)C3)c(C)o2)cc1 (stereo not given)

Four compounds picked at random from those above:
Rango release inh | Rango complex inh | miR-21 reporter | GLA inh pH 4.5 | SMILES
-6% | 1.7% | -4% | 4 | NC(N)=NNC(=O)c1ccccc1Cl
-3% | -1.1% | 4% | 3 | CCC(C)(C(=O)NC1CCCC1)N(C)C(=O)Cc1c[nH]c2ccccc12 (stereo not given)
-4% | 1.4% | -15% | 4 | O=C(NCc1ccncc1)NC1CCCCC1
1% | -0.8% | · | · | O=C(c1cccc(O)c1)N1CCN(C(=O)C2CC2)CC1

Going on with the list:
Rango release inh | Rango complex inh | miR-21 reporter | GLA inh pH 4.5 | SMILES
0% | ? | -9% | 5 | CN(C)c1ccc(C(=O)n2nnc3ccccc32)cc1
7% | 0.1% | -5% | · | N#CC1(NC(=O)COC(=O)CCCN=C2NS(=O)(=O)c3ccccc32)CCCCC1
5% | 3.4% | 0% | -13 | CC(NC(=O)C1CCCN(C(=O)N(C)C)C1)c1ccccc1 (stereo not given)
3% | 0.2% | -44% | 4 | O=C(COc1ccc2ccccc2c1Br)NCc1ccccn1
5% | -2.1% | -1% | -8 | O=C(Cn1cc(/C=N/NC(=O)c2ccccc2Br)c2ccccc21)Nc1ccc(F)cc1
? | -0.2% | -3% | -14 | CCOc1ccc(NC(=O)CNc2ccc(C)cc2Cl)cc1
1% | -3.4% | -5% | · | Cc1csc(NC(=O)c2cccc([N+](=O)[O-])c2C(=O)O)n1
-1% | 1.4% | -9% | -5 | CN(C)c1nc(OCC(=O)NC(C)(C)C)nc(N(C)C)n1
5% | ? | 0% | 18 | Cc1cc(C)nc(Sc2nc(C)nc3c2oc2ccccc23)n1
1% | -1.4% | 2% | 8 | O=C(CSc1nnnn1-c1ccc(F)cc1)NCc1cccs1
-17% | 1.4% | -13% | · | COc1ccc(COC(=O)C2=C(C)NC(=O)NC2c2ccc(OC)c(OC)c2)cc1 (stereo not given)
2% | -0.2% | -5% | · | Cc1ccc(C)c(N2C(=O)C3C4C=CC(CC4)C3C2=O)c1 (stereo not given)
26% | 0.9% | -1% | 7 | Cc1ccc2oc(=O)n(CC(=O)OCCC(C)C)c2c1
-16% | -3.5% | -4% | -10 | CCCCNC(=O)C1c2cc(OC)c(OC)cc2C(=O)N(C)C1c1ccc(OC)cc1 (stereo not given)
-4% | -1.3% | -1% | -11 | COc1cccc(C(=O)N(Cc2ccco2)Cc2cc3cccc(C)c3[nH]c2=O)c1
-6% | -6.9% | -4% | -5 | Cc1cccc(NC(=O)C2CCCN(C(=O)Nc3ccccc3)C2)c1C (stereo not given)
1% | -0.9% | 2% | · | Cn1c(CNC(=O)c2ccccc2F)nnc1SCC(=O)Nc1nncs1
-3% | -0.4% | -3% | · | O=C1C2C3C=CC(C2C(=O)N1CCO)C1C(=O)N(CCO)C(=O)C31 (stereo not given)
-8% | -3.5% | 1% | 8 | NS(=O)(=O)c1ccc(NC(=S)NCc2cccs2)cc1
13% | -1.9% | · | · | COc1ccc(OC)c(C(=O)COC(=O)c2cccnc2SC)c1
-14% | 0.2% | -11% | · | COc1ccc(-c2nc(CN3CCN(C(=O)c4ccco4)CC3)c(C)o2)cc1OC
-11% | 0.3% | 0% | 9 | COC(=O)CCC(=O)Nc1ccc(C)cc1OC(=O)CCC(=O)OC
-19% | -5.3% | 0% | 6 | O=C(COC(=O)c1cnc(Cl)c(Cl)c1)NCc1ccco1
4% | 0.5% | 7% | 5 | CCCCc1cn([C@@H](CCCCNC(=O)OC(C)(C)C)C(=O)N2CCN(C(=O)OC(C)(C)C)CC2)nn1
-9% | -1.8% | 1% | 0 | COc1ccc(NC(=O)CSc2nnc(-c3ccccn3)n2N)cc1
-11% | -1.7% | 18% | -17 | CCOc1cc(-c2cc(-c3ccccc3)nc(N)c2C#N)ccc1O
-4% | 0.1% | 1% | 3 | COc1ccc(NC(=O)CSc2nc3c(c(=O)[nH]2)CCC3)cc1OC
1% | 1.8% | · | · | CC1(c2cccc3ccccc23)OC(=O)c2ccccc21 (stereo not given)
1% | -6.1% | 15% | · | CCN1CCN(C2=C(NS(=O)(=O)c3ccc(NC(C)=O)cc3)C(=O)c3ccccc3C2=O)CC1
? | -1.6% | -3% | -2 | CC([NH2+][O-])C(C)(C)NO (stereo not given)
0% | 0.3% | 3% | · | O=[N+]([O-])c1cccc(CN2CCCCCC2)c1
-7% | -0.8% | 0% | -9 | O=C(NCC1CCCO1)C1CCCN1C(=O)Nc1ccc(Cl)cc1 (stereo not given)
28% | -2.3% | · | · | CCCN(C(=O)COC(=O)c1cc(CC)c(C)s1)c1c(N)n(Cc2ccccc2)c(=O)[nH]c1=O
2% | 0.6% | · | · | Cc1ccc(OCCNC(=O)CCNS(=O)(=O)c2ccc3ccccc3c2)cc1
19% | 3.3% | -5% | 7 | CC(=O)c1cccc(NC(=O)c2ccc(NS(C)(=O)=O)cc2)c1
-6% | 0.9% | · | · | CC(C)=CCC/C(C)=C/CNC(=O)C[C@H]1C[C@H](C(=O)N2CCOCC2)[C@@]2(C)c3[nH]c4cc(-c5ccco5)ccc4c3CCN2C1=O
-4% | 0.3% | 1% | · | O=C(Cc1ccccc1)NCC(=O)N1CCN(c2ccccc2)CC1
-21% | 2.8% | -18% | -5 | CCOC(=O)c1cn(Cc2ccc(Br)cc2)nn1
-6% | -0.1% | · | · | COc1ccc(NC(=O)CN(C)C(=O)c2ccc(NC3CC3)c([N+](=O)[O-])c2)cc1
3% | 4.5% | -2% | 3 | Cc1cc(C)n2nc(SCc3nnc(SCc4ccccc4C)s3)nc2n1
0% | -0.4% | 4% | · | COc1ccc(COC(=O)C2=C(C)NC(=O)NC2c2ccccc2)cc1 (stereo not given)
-19% | 5.5% | -30% | 4 | Clc1ccc(CSc2ncn(-c3ccccc3)n2)cc1
9% | 1.5% | -3% | 9 | CC(=O)Nc1ccc(N2C(=O)CC(Sc3nc4ccccc4s3)C2=O)cc1 (stereo not given)
2% | -0.8% | · | · | O=C1NCCOC(=O)[C@@H](Cc2ccc(F)cc2)CC/C=C/C[C@H]1CC(=O)N(CCO)Cc1ccccc1
-13% | 0.2% | -4% | 2 | Cc1ccc(NC(=O)/C(=C\c2cccnc2)NC(=O)c2ccco2)cc1
10% | -5.2% | 0% | -14 | COc1ccc(-n2cc(CNCc3cnc4ccccn34)c(-c3cccc(F)c3)n2)cc1
3% | 8.6% | 0% | · | CC(Oc1ccccc1Cl)C(=O)N(Cc1cccs1)C1CCS(=O)(=O)C1 (stereo not given)
-17% | -2.9% | 1% | · | CC(C(=O)OCC(=O)c1ccc(F)cc1)N1C(=O)C2C3C=CC(C3)C2C1=O (stereo not given)
-12% | 4.0% | -47% | 1 | Cc1sc(NC(=O)COc2ccccc2)c(C#N)c1C
-3% | 0.4% | · | · | Cc1nn(CC(=O)NCCC2=CCCCC2)c(C)c1[N+](=O)[O-]
22% | 1.1% | · | · | Cc1ccc(S(=O)(=O)N2CCCC2CNC(=O)C(=O)NC2CCCC2)cc1 (stereo not given)
-3% | -0.5% | -62% | 5 | COc1ccc(-c2noc(-c3ccccc3Cl)n2)cc1OC
-20% | ? | · | · | N#CCc1c(C#N)c(N)nc(N2CCCC2)c1C#N
-2% | -5.0% | -18% | 6 | COC(=O)CCSc1nccn1Cc1ccccc1
-3% | 2.5% | 9% | 0 | COC(=O)c1ccc(NC(=O)c2ccc(NC(=O)C3CCCO3)cc2)cc1 (stereo not given)
4% | -1.5% | 0% | -3 | Cc1ccc(Cn2cccc(NC(=O)CCC3CCCC3)c2=O)cc1

Next section, overlapping the part above by 4 compounds.
Rango release inh | Rango complex inh | miR-21 reporter | GLA inh pH 4.5 | SMILES
-20% | ? | · | · | N#CCc1c(C#N)c(N)nc(N2CCCC2)c1C#N
-2% | -5.0% | -18% | 6 | COC(=O)CCSc1nccn1Cc1ccccc1
-3% | 2.5% | 9% | 0 | COC(=O)c1ccc(NC(=O)c2ccc(NC(=O)C3CCCO3)cc2)cc1 (stereo not given)
4% | -1.5% | 0% | -3 | Cc1ccc(Cn2cccc(NC(=O)CCC3CCCC3)c2=O)cc1
8% | -0.6% | 4% | -2 | O=C(OCc1cncs1)c1ccccc1Cl
1% | -0.3% | · | · | O=C(Nc1ccc2c(c1)OCCO2)c1cnc2ccccn2c1=O
-19% | ? | 21% | -12 | CCN(CC)S(=O)(=O)c1cccc(-n2c(O)c(C=Nc3ccccc3C(=O)O)c3ccccc3c2=O)c1
-1% | 1.2% | -1% | · | O=C(O)CC1(CC(=O)Nc2cccc(C(=O)O)c2)CCCC1
